# From PubChem
# GLD-1 RNA inh = GLD-1/TGE RNA complex disruptors, primary screen, biochemical, fluorescence polarization. purified GLD-1 + fluorescein TGE RNA. inhibition, % at 5.96 µM. actives 0.44% (n = 320,000). AID 2280, 2010;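 active means percent inhibition above a per-plate cutoff, the plate mean of test compounds plus 3 SD, cut at about 30% in these data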;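 further: 0% = DMSO wells with GLD-1 and probe and 100% = wells lacking GLD-1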
# TPT1 inh = Candida albicans TPT1 enzyme inhibitors, primary screen, biochemical, fluorescence polarization | tRNA 2'-phosphotransferase TPT1 (Candida albicans SC5314) | recombinant caTPT1, FP RNA substrate dephosphorylation | inhibition, % at 5 µM | actives 0.81% (n = 300,000) | AID 1962, 2009;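 active means inhibition above the mean of all tested compounds plus 3 SD, set per screening campaign, cut at about 24% in these data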;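 further: plate controls were DMSO alone for no effect and ferristatin control at 100 nM for full effect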
# PAD4 FP inh = human PAD4 inhibitors, primary screen, biochemical, fluorescence polarization, 1536-well format. actives 0.41% (n = 330,000). inhibition, % at 6.36 µM. Protein-arginine deiminase type-4 (Homo sapiens), Q9UM07. recombinant PAD4, RCA probe fluorescence polarization;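 active means percent inhibition above a cutoff equal to the mean of all tested compounds plus 3 SD, cut at about 15% in these data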;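 further: 0% = PAD4 with RCA probe and DMSO and 100% = probe without PAD4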
# Target sequence (Q9UM07 whole entry, looked up): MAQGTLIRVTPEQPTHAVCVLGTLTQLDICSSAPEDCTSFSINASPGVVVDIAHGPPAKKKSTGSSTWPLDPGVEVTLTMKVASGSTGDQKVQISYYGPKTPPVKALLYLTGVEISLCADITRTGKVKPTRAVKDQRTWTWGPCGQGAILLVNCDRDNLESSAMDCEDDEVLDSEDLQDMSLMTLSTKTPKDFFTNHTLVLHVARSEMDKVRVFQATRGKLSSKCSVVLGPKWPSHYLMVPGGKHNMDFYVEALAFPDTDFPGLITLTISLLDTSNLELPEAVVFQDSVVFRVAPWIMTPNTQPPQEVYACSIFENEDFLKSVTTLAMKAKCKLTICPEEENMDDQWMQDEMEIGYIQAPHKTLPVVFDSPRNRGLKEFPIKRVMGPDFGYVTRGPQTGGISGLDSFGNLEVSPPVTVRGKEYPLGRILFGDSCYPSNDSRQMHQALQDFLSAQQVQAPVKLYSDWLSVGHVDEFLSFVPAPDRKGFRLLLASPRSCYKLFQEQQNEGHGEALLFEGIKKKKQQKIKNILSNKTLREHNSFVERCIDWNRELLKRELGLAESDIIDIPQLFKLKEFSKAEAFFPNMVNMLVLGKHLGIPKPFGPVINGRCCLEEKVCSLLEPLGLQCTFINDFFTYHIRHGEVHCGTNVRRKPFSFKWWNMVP
# Fam108B counter = mouse Fam108B serine hydrolase inhibitors, primary screen, counter-screen for RBBP9 inhibitor project, biochemical, fluorescence polarization; recombinant Fam108B, FP-Rh probe fluorescence polarization; inhibition, % at 9.51 µM; actives 0.33% (n = 300,000); AID 1947, 2009;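 active means inhibition above the screen mean inhibition plus 3 SD, computed separately per campaign, cut at about 18% in these data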;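 further: inhibitors lower polarization as less probe binds the enzyme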
# MEX-5 binding = MEX-5 zinc finger RNA-binding disruptors – biochemical, C. elegans, fluorescence polarization, MLPCN library, primary screen | MEX-5/FITC-TCR2 RNA binding; stronger effect = lower value | Zinc finger protein mex-5 (Caenorhabditis elegans), Q9XUB2 | actives 0.38% (n = 300,000) | activity score (negative = inhibition of binding), % at 10 µM | AID 1832, 2009;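 active means inhibition past about -25% in most replicates, and total fluorescence under double the plate's negative control median, limit read from the data; inconclusive means replicates evenly split on the limit, or fluorescence at least double controls; inactive means too little inhibition in most replicates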;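 further: 0% = DMSO and -100% = 5 µM competing unlabeled TCR2 RNA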
# An asterisk follows results filed as active; u = inconclusive.
SMILES,GLD-1 RNA inh,TPT1 inh,PAD4 FP inh,Fam108B counter,MEX-5 binding
CCn1c(CNc2ccc(C)cc2)nnc1SCC(N)=O,-1,0,-5,-2,-1.5
NC(=O)c1cc(NC(=O)c2ccc(NS(=O)(=O)c3cccs3)cc2)cc(C(N)=O)c1,-6,-2,-5,2,-0.4
COc1ccc(/C=C/C(=O)NC(=S)N2CCSCC2)cc1,11,-13,-2,2,0.0
C=C1CCN([C@@H](CC(C)C)C(=O)N2CCOCC2)S(=O)(=O)c2ccccc21,-4,-4,-4,-5,0.6
CC(=O)Nc1cccc(/C(C)=N/NC(=O)c2ccc(NS(=O)(=O)c3cccs3)cc2)c1,-4,2,-2,5,4.4
COc1ccccc1N1C(=O)C2C(C(=O)c3ccccc3)=NN(c3ccc(Br)cc3)C2C1=O (stereo not given),-14,35*,-1,-9,u
COc1ccc(-c2cc(-c3n[nH]c(=S)n3-c3ccccc3OC)[nH]n2)cc1,3,0,5,-3,-0.8
COc1ccc(N/N=C(/C(N)=O)C2=NC(C)(C)Cc3ccccc32)cc1,-5,2,-7,-2,2.0
CCn1c(Cc2ccccc2)nnc1SCC(=O)Nc1ccc(C)cc1,10,2,-1,-4,-2.4
N#CC(c1cccc(C(F)(F)F)c1)(c1ncc(C(F)(F)F)cc1Cl)N1CCOCC1 (stereo not given),7,2,-2,4,0.1
CCn1c(CN2CCOCC2)nnc1SCC(=O)Nc1ccc(C)cc1,-3,1,-2,-5,1.9
COC(=O)C1=NN(c2ccc(C)cc2)C2C(=O)N(c3ccccc3OC)C(=O)C12 (stereo not given),-3,0,-4,-2,-0.2
O=C(N/N=C/c1ccncc1)c1ccc(NS(=O)(=O)c2cccs2)cc1,12,-2,-1,0,-2.9
Cc1nc2cc(F)ccc2n1C1CCN(C(=O)c2ccc(F)cc2F)CC1,5,10,2,3,-1.1
COc1ccc(C(=O)N2CCC(n3c(C)nc4cc(F)ccc43)CC2)cc1OC,5,3,-1,-5,-1.7

# In another format: entries from further up.
# The line under a structure holds: GLD-1 RNA inh	TPT1 inh	PAD4 FP inh	Fam108B counter	MEX-5 binding
COC(=O)C1=NN(c2ccc(C)cc2)C2C(=O)N(c3ccccc3OC)C(=O)C12 (stereo not given)
    -3	0	-4	-2	-0.2
O=C(N/N=C/c1ccncc1)c1ccc(NS(=O)(=O)c2cccs2)cc1
    12	-2	-1	0	-2.9
Cc1nc2cc(F)ccc2n1C1CCN(C(=O)c2ccc(F)cc2F)CC1
    5	10	2	3	-1.1

# Arranged by the number under GLD-1 RNA inh (ascending): some entries from above
mol	GLD-1 RNA inh	TPT1 inh	PAD4 FP inh	MEX-5 binding
COC(=O)C1=NN(c2ccc(C)cc2)C2C(=O)N(c3ccccc3OC)C(=O)C12 (stereo not given)	-3	0	-4	-0.2
COc1ccc(/C=C/C(=O)NC(=S)N2CCSCC2)cc1	11	-13	-2	0.0
O=C(N/N=C/c1ccncc1)c1ccc(NS(=O)(=O)c2cccs2)cc1	12	-2	-1	-2.9

# Entries shown so far with an aryl methoxy group (six):
SMILES,GLD-1 RNA inh,TPT1 inh,PAD4 FP inh,Fam108B counter,MEX-5 binding
COc1ccc(/C=C/C(=O)NC(=S)N2CCSCC2)cc1,11,-13,-2,2,0.0
COc1ccccc1N1C(=O)C2C(C(=O)c3ccccc3)=NN(c3ccc(Br)cc3)C2C1=O (stereo not given),-14,35*,-1,-9,u
COc1ccc(-c2cc(-c3n[nH]c(=S)n3-c3ccccc3OC)[nH]n2)cc1,3,0,5,-3,-0.8
COc1ccc(N/N=C(/C(N)=O)C2=NC(C)(C)Cc3ccccc32)cc1,-5,2,-7,-2,2.0
COC(=O)C1=NN(c2ccc(C)cc2)C2C(=O)N(c3ccccc3OC)C(=O)C12 (stereo not given),-3,0,-4,-2,-0.2
COc1ccc(C(=O)N2CCC(n3c(C)nc4cc(F)ccc43)CC2)cc1OC,5,3,-1,-5,-1.7

# Later entries
SMILES,GLD-1 RNA inh,TPT1 inh,PAD4 FP inh,Fam108B counter,MEX-5 binding
COc1ccc(/C(O)=C2\C(=O)C(=O)N(c3cc(C)on3)C2c2ccc(OC)c(OC)c2)cc1OC (stereo not given),3,-4,1,0,1.9
O=C1CCC/C(=N/NC(=O)c2ccc(NS(=O)(=O)c3cccs3)cc2)C1,20,2,-1,3,-8.9
O=C(O)c1cc2ccc3ccccc3c2oc1=O,4,-8,-5,-2,-3.5
C/C(=N\NC(=O)c1ccc(NS(=O)(=O)c2cccs2)cc1)c1ccccc1,6,-1,-1,-3,-0.4
Cc1ccccc1OCc1nc(-c2ccc(NC(=O)c3ccc4c(c3)OCO4)cc2)no1,4,-1,-5,-6,-2.8
Cc1nc2cc(S(=O)(=O)N3CCC(C(=O)O)CC3)ccc2n1C1CCCC1,-4,0,-3,-1,-0.9
COc1ccc(OC)c(-c2csc(N3CCC(c4ccccc4)CC3)n2)c1,6,1,-1,6,1.8
COc1cccc2cc(C(=O)CS(=O)(=O)c3ccc(Cl)cc3)c(=O)oc12,2,-3,-5,1,-0.9
COc1ccc(Nc2oc(COc3ccc(OC)cc3)nc2C#N)cc1,0,-1,1,9,-0.8
Cc1cccc(-c2nnc(SCC(=O)O)n2Cc2ccccc2)c1,-1,-2,0,-1,0.8
O=C(NCCN1C(=O)S/C(=C\c2cccnc2)C1=O)C1CC(=O)N(Cc2ccco2)C1 (stereo not given),-3,2,1,-1,-1.0
CCN(CC)CCNc1nc2nonc2nc1NCCN(CC)CC,4,-4,-1,4,0.5
CCn1c(COc2ccc(Cl)cc2)nnc1SCC(=O)Nc1ccc2c(c1)OCCO2,-2,-3,1,0,-0.2

# Not all compounds are listed; count on the stated rates, not on these rows.
